Screens: PubChem BioAssay, ICCB-Longwood Screening Facility, Harvard Medical School
VACV E9 pol inh – blocks vaccinia virus processive DNA synthesis | in vitro processive DNA synthesis, absorbance read-out; active compounds read low; some inactives read as strong as hits | normalized absorbance, % (no concentration beside the values) | 46,000 tested, 0.94% active | AID 493162;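 active = replicate mean up to 90% and picked by the depositor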;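 also: 100% = median of the test wells of a plate; 100 nL library stock went into each well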
Starred values were filed as active, the others as inactive; & = joins results of further samples.

SMILES | VACV E9 pol inh
O=C(CCCN1CCNCC1)c1ccc(F)cc1 | 98.8
O=C(O)/C=C/C(=O)N1CCN(C(=O)/C=C/C(=O)O)CC1 | 97.5
CN(C)c1c(/C=C(/C#N)S(C)(=O)=O)cc(/C=C(/C#N)S(C)(=O)=O)c(N(C)C)c1C#N | 100.6
CCC(C)(C)C1CCc2nc3ccccc3c(C(=O)OCC(N)=O)c2C1 (stereo not given) | 72.7
O=C(C1CCCCC1)N1CC(=O)N2CCc3ccccc3C2C1 (stereo not given) | 103.9
O=C(CNC(=O)C1CCCCC1)Nc1nc(CC23CC4CC(CC(C4)C2)C3)cs1 | 100.2
COC(Cn1c(SCc2ccc(Cl)cc2)nnc1-c1ccccc1)OC | 100.8
CCOC(=O)c1sc(-c2ccccc2)cc1N | 98.1
CC(C)Cc1ccc(C(C)C(=O)Nc2ccc(Cl)cc2)cc1 (stereo not given) | 101.0
C=C(NCc1ccco1)c1ccc(Cl)cc1 | 104.5
CC(=O)N(c1ccc(C(C)C)cc1)C1C=CS(=O)(=O)C1 (stereo not given) | 86.0
Cn1c(COc2ccccc2O)[n+](C)c2ccccc21 | 101.0
Brc1ccc(NC2=NCCC2)cc1 | 93.3
CCCCN1C(=O)c2[nH]nc(-c3ccccc3O)c2C1c1cccc(O)c1 (stereo not given) | 97.5
O=C(Nc1nc(-c2ccccc2)cs1)c1ccccc1 | 99.1
CCOC(=O)C(CC)n1cnc2c(oc3ccccc32)c1=O (stereo not given) | 94.7
COc1ccc(Cl)cc1NC(=O)CN1C(=O)CSc2ncccc21 | 102.3
O=C(Nc1ccc2c(c1)C(=O)OC2)c1cc2ccccc2s1 | 107.9
Clc1ccc(-n2cc(-c3ccccc3)c3c(NCCCN4CCOCC4)ncnc32)cc1 | 95.5
N#Cc1c(N)n(-c2cccc(C(F)(F)F)c2)c2nc3ccccc3nc12 | 92.4
O=c1c2ccccc2nc(SCc2ccccc2)n1OCc1ccccc1 | 101.9
CCOC(=O)c1[nH]c(C)c(C(=O)NC2CCCCC2)c1C | 100.2
COc1cccc(CNC(=O)c2cnc(OC)cc2C(F)(F)F)c1 | 101.2
Cc1ccc(CN2C(=O)CCNc3ccc(C(F)(F)F)cc32)cc1 | 101.6
Cc1cc2n(n1)C(c1ccsc1)Nc1c(C)cccc1-2 (stereo not given) | 87.7
O=C(Nc1ccccc1-c1nc2ccccc2[nH]1)C1=COCCO1 | 91.8
C=CCn1cnc2c(cnn2-c2ccc(F)cc2)c1=O | 103.1
N#CCC(O)CNc1ncc(C(F)(F)F)cc1Cl (stereo not given) | 96.0
COc1ccc(Oc2cc(C)c3ccccc3n2)cc1 | 90.9
Cc1ccc(CSc2nc3ccccc3c3nc(CCc4c(C)n[nH]c4C)nn23)cc1 | 96.8
OC(COc1ccccc1Cl)CN1CCCC1 (stereo not given) | 122.7
NC(=O)NC1NC(=O)NC1=O (stereo not given) | 100.4
CC1=CC(=O)N(c2c(C)n(C)n(-c3ccccc3)c2=O)C1=O | 87.3
COc1cccc(/C(O)=C/c2nc3ccc(C(=O)Nc4cccc(C)c4)cc3[nH]c2=O)c1 | 79.1
COc1c(O)c2c(=O)cc(OC)c3c4c(OC)cc(=O)c5c(O)c(OC)c(CC(C)OC(=O)c6ccccc6)c(c(c1CC(C)OC(=O)Oc1ccc(O)cc1)c23)c54 (stereo not given) | 97.6
CC(N=Cc1c(O)c2ccccc2oc1=O)C(=O)O (stereo not given) | 96.0
Cc1ccc(CNC(=O)C2(S(=O)(=O)c3ccc(C)cc3)CC2)cc1 | 97.9
Cc1nc(C23CC4CC(CC(C4)C2)C3)co1 | 101.1
O=C(Cc1cccs1)N1CCOCC1 | 107.5
O=C(OCCc1csc2ccccc12)c1ccc(Cl)cc1 | 103.0
CCN1CCN(c2c(C(=O)c3ccc(OC)cc3)cnc3ccccc23)CC1 | 89.4
C[N+]12CCCCC1C(COC(=O)c1ccccn1)CCC2 (stereo not given) | 100.5
Cc1sc2c(c1C)c(=O)nc1scc(CC(=O)NCCO)n12 | 82.0
NC(CC(=O)O)c1ccsc1 (stereo not given) | 100.2
COc1ccc(C(CCNCc2ccccc2)C2CCOC(C)(C)C2)cc1 (stereo not given) | 98.7
CC12C=CC(=O)C=C1CCC1C2=CCC2(C)C1CC[C@@H]2C(=O)CN1CCN(c2cc(N3CCCC3)nc(N3CCCC3)n2)CC1 (stereo not given in full) | 97.7
c1ccc2c(c1)CCN(c1nc3cc4c(cc3s1)OCO4)C2 | 101.6
CC1CCN(C(=O)CSc2nc(-c3ccco3)nc3c2c(=O)n(C)c(=O)n3C)CC1 | 98.1
Cc1cccc(C(=O)NCCCc2nc3ccccc3[nH]2)c1 | 100.9
CC1CCN(S(=O)(=O)c2cn(CC(=O)N(C)Cc3ccccc3)c(=O)c3ccccc23)CC1 | 100.7
CN1/C(=C/C(=O)CSC2CCCC2)C(C)(C)c2ccccc21 | 87.3
CC(C)(Sc1cc(C(C)(C)C)c(O)c(C(C)(C)C)c1)Sc1cc(C(C)(C)C)c(O)c(C(C)(C)C)c1 | 99.5
CCOC(=O)C(C)(C)Sc1ncnc2nc[nH]c12 | 99.5
COC(=O)c1cnc(Nc2ccccc2)nc1C(F)(F)F | 113.6
Cc1ccc2cc3cc(C(=O)NCc4cccs4)sc3nc2c1 | 103.6
CCOc1ccc(CCN=C2CC(c3ccccc3)CC(=O)/C2=C(/O)CC)cc1OCC (stereo not given) | 100.3
Fc1cccc(Oc2ncnc3scc(-c4ccccc4)c23)c1 | 99.7
N#C/C(=C\c1ccc(Cl)c(Cl)c1)c1ccc(NC(N)=O)cc1 | 104.0
COc1ccc(CNC(=O)c2cccn3c(=O)c4c5c(sc4nc23)CCCC5)cc1 | 100.4
CCN(CC)C(=O)CSc1nc(N)c(C#N)c(CC(C)C)c1C#N | 99.8

The final three compounds of the section before are carried over, then new ones follow:
SMILES | VACV E9 pol inh
N#C/C(=C\c1ccc(Cl)c(Cl)c1)c1ccc(NC(N)=O)cc1 | 104.0
COc1ccc(CNC(=O)c2cccn3c(=O)c4c5c(sc4nc23)CCCC5)cc1 | 100.4
CCN(CC)C(=O)CSc1nc(N)c(C#N)c(CC(C)C)c1C#N | 99.8
CC(=O)Oc1c(Sc2c(F)c(F)c(F)c(F)c2F)c(C)nn1C(C)(C)C | 86.5
CC1CCN(C(=O)COc2ccc(Br)cc2)CC1 | 100.6
Cc1ccc(N2C(=O)/C(=C/C=C/c3ccccc3)SC2=S)cc1 | 100.4
O=C(O)c1ccccc1C(=O)N1CCN(c2ccccc2)CC1 | 103.3
CC(C)NC(=O)c1cn2c3c(ccc(Cl)c3c1=O)OC(C)C2 (stereo not given) | 102.9
Cc1ccc(C(=O)c2oc3ccccc3c2NC(=O)C2COc3ccccc3O2)cc1 (stereo not given) | 100.3
CCC(=O)Nc1cccc(-c2nc3ccccc3o2)c1 | 99.6
CC1=NN(c2ccccc2)C(c2ccc(OCC(=O)N3CCCC3)cc2)C1 (stereo not given) | 100.2
CN1NC2(CCCCC2)N(c2ccccc2)C1=S | 100.4
Nc1sc(=S)n(-c2ccccc2)c1-c1nc2ccccc2s1 | 99.9
O=C(Oc1cccc(Br)c1)C1CCCCC1 | 97.9
O=C(O)c1ccccc1C(=O)Nc1cc(C(F)(F)F)ccc1N1CCCC1 | 85.5
CCSc1nnc(NC(=O)c2ccc(-c3ccccc3)cc2)s1 | 98.7
O=C(CCCn1c(=O)c2cccn2c2cccnc21)Nc1ccccc1F | 111.4
COc1ccc(NC(=O)Cn2c(=O)oc3cc(S(=O)(=O)NCc4ccccc4)ccc32)cc1OC | 97.9
COc1ccc(C(=O)/C(C#N)=C/N(C)C)cc1 | 109.9
c1ccc(-c2cc3c(N4CCCC4)ncnc3s2)cc1 | 102.3
N#Cc1c(N2CCCC2=O)sc2c1CCCC2 | 101.4
C=CCSc1nc(C)cc(C)c1C#N | 100.2
COc1ccc(Cc2cnc(N)s2)cc1 | 99.9
COc1ccccc1Nc1nc(C)cs1 | 99.4&98.4
CC(=O)Nc1sc2c(c1C#N)CCCCC2 | 95.4
CC12CCC3c4ccc(OCc5ccccc5)cc4CCC3C1C[C@@H](O)[C@@H]2O (stereo not given in full) | 100.4
O=C(C1CC(=O)N(c2ccccc2)C1)N(Cc1ccccc1)Cc1ccccc1 (stereo not given) | 83.2
Cc1ccc(Cn2cnc3c(cnn3C)c2=O)cc1 | 98.1
Cc1ccc(NCc2cccc3c2CN(CC2CCCO2)C3)cc1 (stereo not given) | 99.6
C[N+]1(Cc2ccccc2)CCCC1c1ccc(N)nc1 (stereo not given) | 100.2
Cc1ccc(NC(=S)N(C)/N=C/c2ccccn2)cc1Cl | 96.5
COc1ccc(NC2=NCCCCC2)cc1 | 102.2
CC(=O)N1CCc2c(sc(NC(=O)Cc3ccccc3)c2C(N)=O)C1 | 107.8
O=C(O)c1ccc(NC(=O)C2CC2)cc1 | 103.5
N[C@@H](Cc1c[nH]c2ccccc12)C(=O)O | 99.4
O=C(c1ccccc1)N(c1ccc(Cl)cc1)C1C=CS(=O)(=O)C1 (stereo not given) | 100.5
Fc1ccc(Nc2nc3ccccc3nc2Nc2ccc(F)cc2)cc1 | 99.7
c1ccc(N=C2SC(=NC3CCCCC3)C3=C2CCCC3)cc1 | 110.5
COc1ccc2c(=O)c(-c3cnn(-c4ccccc4)c3)coc2c1 | 95.5
Cc1cccc(OCC(=O)Nc2ccccc2)c1 | 100.9
O=C(NCCCN1CCCC1)c1ccc(CS(=O)c2ccccc2)o1 (stereo not given) | 99.5
O=C(O)c1cn(-c2ccccc2)nc1-c1ccccc1 | 99.3
COc1ccc(/C=C2/C(=O)C(C)(C(C)C)CCC2C)cc1 (stereo not given) | 99.8
O=C(O)c1ccc2c(c1)S(=O)(=O)c1ccccc1C2=O | 96.1
O=C(O)Cn1c2c(c3ccccc31)CCCC2 | 99.9
Cc1nc2ccc(C(F)(F)F)cc2[nH]1 | 102.7
O=C(NC1CCCC1)C1CCCN(S(=O)(=O)N2CCCC2)C1 (stereo not given) | 99.8
CCCC1CN2CCC3=C(CCC3)C2(C)C1 (stereo not given) | 100.0
O=C(CCCCl)Nc1ccccc1N1CCOCC1 | 105.3
CC(C)OC(=O)C1=c2s/c(=C\c3cccnc3)c(=O)n2C(N)=C(C#N)C1c1cccnc1 (stereo not given) | 99.7
Cc1c(C(=O)O)oc2ccc3c(c12)C(=O)CC(C)(C)O3 | 94.6
O=C(CSc1c[nH]c2ccccc12)N1CCCc2ccccc21 | 99.9
CCCn1c(NCc2ccc(OC)cc2)nc2ccccc21 | 100.1
CC(=NCCc1c[nH]c2ccccc12)c1ccccc1O | 101.2
COc1ccccc1N1CCN(C(=O)C2C3C=CC(O3)C2C(=O)O)CC1 (stereo not given) | 100.4
COC(=O)/C=C1\SC(=Nc2ccc(C)c(C)c2)N(c2ccc(C)c(C)c2)C1=O | 111.2
Nc1sc2c(c1C(=O)c1ccc(Cl)cc1)CCN(Cc1ccccc1)C2 | 84.9
COc1ccccc1N1CCN(CC(O)COc2ccccc2C(C)(C)C)CC1 (stereo not given) | 91.5
COC(=O)c1ccccc1NC(=O)c1cc(OC)cc(OC)c1 | 100.1
CC(C)NC(=O)CCCN1C(=O)CSc2ncccc21 | 99.6
CCCn1c2ccccc2c2nnc(SC(CC)C(=O)Nc3nc(C)c(C(=O)OCC)s3)nc21 (stereo not given) | 92.1
O=C(O)c1coc2c1/C(=N/N1CCCCC1)CCC2 | 101.4
COc1ccc(-c2nc3ccccc3n2C)cc1 | 109.5

More records
SMILES | VACV E9 pol inh
O=C(O)CCC(=O)N1N=C2/C(=C/c3ccc(F)cc3)CCCC2C1c1ccc(F)cc1 (stereo not given) | 100.4
Cc1cc(C)nc(/N=C(/NC(=O)Nc2cccc(Cl)c2)Nc2ccccc2C)n1 | 100.2
Cc1cccc(Nc2nc3nonc3nc2Cl)c1 | 92.8
CC(C)Oc1ccccc1Nc1ncnc2ccccc12 | 100.2
Cc1ccccc1NC(=O)CSC(=O)c1ccccc1 | 98.7
Nc1ccccc1CC(c1c[nH]c2ccccc12)c1c[nH]c2ccccc12 | 100.1
COC(=O)CN(C(=O)c1cc2ccccc2oc1=O)c1ccc(Br)cc1 | 98.7
COc1ccccc1Nc1nc(-c2ccc(OC)c(OC)c2)cs1 | 100.5
O=C(Cc1ncc(C(F)(F)F)cc1Cl)NO | 86.8
C=CCn1c(C)ccc1C | 97.1
N#Cc1ccccc1S(=O)(=O)Nc1ccc2c(c1)C(=O)OC2 | 87.2
CCn1c(CNC(=O)C(C)(C)C)nc2ccccc21 | 100.9

Structural class, those above containing an NH in an aromatic ring
SMILES | VACV E9 pol inh
CCCCN1C(=O)c2[nH]nc(-c3ccccc3O)c2C1c1cccc(O)c1 (stereo not given) | 97.5
CCOC(=O)c1[nH]c(C)c(C(=O)NC2CCCCC2)c1C | 100.2
O=C(Nc1ccccc1-c1nc2ccccc2[nH]1)C1=COCCO1 | 91.8
Cc1ccc(CSc2nc3ccccc3c3nc(CCc4c(C)n[nH]c4C)nn23)cc1 | 96.8
COc1cccc(/C(O)=C/c2nc3ccc(C(=O)Nc4cccc(C)c4)cc3[nH]c2=O)c1 | 79.1
Cc1cccc(C(=O)NCCCc2nc3ccccc3[nH]2)c1 | 100.9
CCOC(=O)C(C)(C)Sc1ncnc2nc[nH]c12 | 99.5
N[C@@H](Cc1c[nH]c2ccccc12)C(=O)O | 99.4
Cc1nc2ccc(C(F)(F)F)cc2[nH]1 | 102.7
O=C(CSc1c[nH]c2ccccc12)N1CCCc2ccccc21 | 99.9
CC(=NCCc1c[nH]c2ccccc12)c1ccccc1O | 101.2
Nc1ccccc1CC(c1c[nH]c2ccccc12)c1c[nH]c2ccccc12 | 100.1

(list continues)
SMILES | VACV E9 pol inh
O=C(/C=C1\Sc2ccccc2NC1=O)NCc1cccnc1 | 104.9
CC(CN(C)C)CN1c2ccccc2Sc2ccccc21 (stereo not given) | 99.3
CC(C)(C)c1ccc(N2C(=O)CCC2=O)cc1 | 101.1
Cc1ccc(C)c(CN2C(=O)c3ccccc3S(=O)c3ccc(C(=O)N4CCCCCC4)cc32)c1 (stereo not given) | 101.1
N#Cc1c(NCSCc2ccccc2)sc2c1CCCCC2 | 100.4
CCOC(=O)CSc1nc2ccccc2c(=O)[nH]1 | 104.1
Nc1ccc2c(c1)ncn2CCCn1cnc2cc(N)ccc21 | 103.4
Cn1c(=O)[nH]c(=O)c2c1ncn2CCN1CCOCC1 | 104.6

A portion of the library (hit frequency here may not be typical).
